Screens as filed in PubChem BioAssay.
miR-21 reporter: raises the signal of a miR-21 reporter | Potency, µM (titrated, usually from 38.3 µM), for the others: at the top dose reporter change, positive = more light | HeLa miR-21 FLuc reporter, luciferase, 48 h | AID 2288 | 340,000 tested, under 10 active; active = well fitted rising curve with a large enough effect; inconclusive = small, poorly fitted or top-dose-only effect; inactive = no such curve, though single readings can be large or run the other way;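 further: % of control where 0% means no effect; miR-21 action dims this reporter so a rising signal means less miR-21 action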
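Using DMEM plus 10% FBS, HeLa miR-21-FLuc cells are incubated with test compounds (final up to about 40uM) for 48 hours; firefly luciferase signal is then imaged following reagent-mediated lysis.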
* = called active by the depositor; ? = inconclusive. The list is partial; the hit share may differ from the screen's.

SMILES	miR-21 reporter
Cc1oc2ccc(O)c(CN3CCCCCC3)c2c1C(=O)Nc1cccc(C(F)(F)F)c1	28%
COc1ccc(NC(=O)C(Cc2ccccc2)NS(=O)(=O)c2ccc3c(c2)CCC(=O)N3)c(OC)c1 (centres undefined)	-3%
COc1ccc(NC(=O)CSc2nc(-c3ccco3)cc(C(F)(F)F)n2)cc1	12%
COCC(=O)Oc1c(Sc2ccc(C)cc2)c(C)nn1C(C)(C)C	11%
CCOC(=O)c1cnc2c(ccc3ccccc32)c1Nc1ccccc1OCC	-8%
CCCNC(=O)c1ccc(-n2c(-c3ccccc3)cc3c2CCC(C)C3)cc1 (centres undefined)	?
Cc1ccc(S(=O)(=O)c2nc(-c3cccs3)oc2SC(C)c2ccccc2)cc1 (centres undefined)	1%
COc1ccccc1NC(=O)C1=C(C)Nc2ncnn2C1c1ccccc1C(=O)O (centres undefined)	-1%
Cc1ccc(-c2nc3sc(CCNC(=O)c4ccc(C)c(C)c4)c(C)n3n2)cc1	-35%
Cc1ccc(-n2c(/C=C/c3c(C)n(C)c4ccccc34)nc3ccccc3c2=O)cc1	2%
COC(=O)c1ccccc1NC(=O)CSc1nc2sc3c(c2c(=O)[nH]1)CCCC3	-2%
Cc1nnc(NCc2ccc(F)cc2)c2c1nnn2Cc1ccccc1Cl	5%
Cc1ccc(S(=O)(=O)C(CNS(=O)(=O)c2cc(F)ccc2F)c2cccs2)cc1 (centres undefined)	6%
CCc1nn(CC(=O)NC(C)c2ccccc2)c(=O)c2cc3sccc3n12 (centres undefined)	-3%
COc1ccc(S(=O)(=O)NCCc2csc3nc(-c4ccccc4)nn23)cc1OC	-1%
O=C(Cn1c(=O)n(CCc2ccccc2)c(=O)c2c3c(sc21)CCCC3)Nc1ccc(F)c(F)c1	-1%
O=C(CCn1ccc2cc(S(=O)(=O)N3CCCC3)ccc21)NCc1ccccc1Cl	6%
CCOc1ccc(NC(=O)Cc2coc3ccc(C)cc23)cc1	-3%
Cc1oc2ccc(O)c(CN3CCCCC3)c2c1C(=O)Nc1cccc(C(F)(F)F)c1	?
O=C(/C=C\c1ccc2c(c1)OCO2)NC1CC(=O)N(c2ccc(F)cc2)C1 (centres undefined)	8%
O=C(Nc1ccc(Br)cc1F)N1CCC(CN2CCc3ccccc3C2)CC1	-1%
CC(C)N(Cc1ccccc1)C(=O)Cn1ncc2c([nH]c3ccccc32)c1=O	11%
CCS(=O)(=O)N1CC(=O)N(c2ccc(C)c(C)c2)C(C)(C(=O)NC2CCCCC2)C1 (centres undefined)	2%
Cc1cccc(-c2nc(CCNC(=O)COc3ccccc3)cs2)c1	-8%
Cc1ccc2oc(-c3ccc(Cl)c(NC(=O)Cc4ccccc4)c3)nc2c1	-17%

Further records
SMILES	miR-21 reporter
Cc1cccc(CSc2nc(=O)c3c(n2C)NC(=O)CC3c2cc(F)cc(F)c2)c1 (centres undefined)	-2%
Cc1ccc(-n2ncc3c(NCc4ccccc4)ncnc32)cc1Cl	-51%
Cc1oc(-c2ccc(C(=O)Nc3ccc(F)cc3F)cc2)nc1COc1ccccc1	-7%
COc1ccc(Br)cc1C(=O)Nc1ccc2oc(-c3cccnc3)nc2c1	-14%
Cn1c(C(=O)N2CCC(C(=O)NCCc3ccccc3)CC2)cc2sccc21	-7%
Cc1c(CC(=O)NCCc2ccc(Cl)cc2)c(=O)oc2c(C)c3occ(C(C)(C)C)c3cc12	-2%
COc1ccc(OC)c(CNC(=O)c2c(C)oc3ncn(CC(C)C)c(=O)c23)c1	2%
COc1cc2ccccc2cc1C(=O)Nc1ccc2oc(-c3cccc(Cl)c3Cl)nc2c1	-17%
Cc1ccsc1CN(C(=O)COc1cccc(C)c1C)C1CCS(=O)(=O)C1 (centres undefined)	-6%
COc1ccc(N2C(=O)CCSC23C(=O)N(Cc2ccc(F)cc2)c2ccccc23)cc1 (centres undefined)	25%
CCN(CC)CCNC(=O)c1ccc2c(=O)n3nc(Nc4cccc(Cl)c4C)sc3nc2c1	-4%
Cc1ccccc1NC(=O)Cn1nc(-c2ccccc2)nc(Cc2ccccc2)c1=O	5%
COCCCNC(=O)CSc1nc2ccccc2c(=O)n1Cc1ccco1	0%
CCc1ccc(O)c(C(=O)c2cnc3cc(-c4ccc(C)cc4)nn3c2)c1	-4%
O=C(COc1ccccc1)N(Cc1cccnc1)c1nc2ccc(F)cc2s1	-50%
CCn1ccc2c(OCC(=O)Nc3ccccc3C(F)(F)F)cccc2c1=O	10%
CCOc1ccc(OCC)c(Nc2nc3ccccc3n3nnnc23)c1	2%
CCOC(=O)c1cnc2ccc(Cl)cc2c1Nc1ccc(OCC)cc1	-1%
Cc1ccc(NC(=O)CCS(=O)(=O)c2ccc(Br)cc2)c(C)c1	-1%
COc1ccccc1CNC(=O)CCCN1C(=O)CCn2nc(-c3cn(C)c4ccccc34)cc21	3%
COc1ccc(CNC(=O)CCCN2C(=O)CCn3nc(-c4cn(C)c5ccccc45)cc32)cc1	-14%
COc1cccc(C(=O)Nc2cccc(C(=O)OCc3cc(=O)n4nc(C5CC5)sc4n3)c2)c1	-8%
Cc1c(NS(C)(=O)=O)cccc1-c1nc2ccccc2s1	0%
Cc1ccc(NC(=O)CN2C(=O)COc3ccc(S(=O)(=O)N4CCCCCC4)cc32)cc1C	8%
CC1=C(C(=O)Nc2cccc(Cl)c2)C2(CCCCCC2)OC1=O	0%

Following part.
SMILES	miR-21 reporter
Cc1ccc(CNC(=O)NCc2noc3ccc(C)cc23)cc1	-7%
O=C(NCC(c1ccccc1)c1ccccc1)c1nn(-c2ccccc2F)nc1CO	26%
Cc1cc(C(F)(F)F)nn1-c1nc(-c2ccccc2)cc(C(F)(F)F)n1	-7%
CCC(=O)Oc1ccc(-c2nc3ccccc3c(=O)o2)cc1	0%
CCOc1ccc(CNC(=O)Cn2nc(C)n3cccc3c2=O)cc1	-54%
CCc1ccc(NC(=O)c2cccc(N3CCCS3(=O)=O)c2)cc1	-19%
COc1ccc(S(=O)(=O)N2CCN(Cc3nc4ccc(C)cc4o3)CC2)cc1OC	0%
CCOC(=O)c1ccc(NC(=O)c2ccc3c(c2)NC(=O)c2ccccc2S3)cc1	6%
CCOC(=O)c1noc2nc(C)n(CC(=O)NC(C)CC)c(=O)c12 (centres undefined)	0%
CC(C)NC(=O)Cn1ncn2c(cc3cc(F)ccc32)c1=O	-2%
CCOc1ccc(NC(=O)Cn2c(=O)n(-c3cccc(Cl)c3)c(=O)c3c2c2cc(C)ccc2n3C)cc1	0%
CC(CNC(=O)CCCn1c(=O)c2cccn2c2ccccc21)c1ccccc1 (centres undefined)	-5%
CCc1ccc(S(=O)(=O)c2nnn3c2nc(NCCNC(C)=O)c2cc(Cl)ccc23)cc1	6%
CCc1ccccc1NC(=O)Nc1nnc(N(CC)c2ccccc2)s1	11%
Cc1cc(C)n(CCc2nc3c4ccccc4nc(N4CCN(c5ccccc5)CC4)n3n2)n1	-1%
COc1ccc(Cl)cc1NS(=O)(=O)c1cc(-c2cc(C)no2)ccc1C	22%
CN(C(=O)C1=CC(c2ccc3c(c2)OCO3)=NS(=O)(=O)N1C)c1ccccc1	13%
Cc1ccccc1NC(=O)Cn1nnc(C(=O)NCCc2ccccc2)c1N	-18%
Cc1ccc(NC(=O)CN2C(=O)CCc3ccccc32)cc1C	-31%
CCc1ccccc1NC(=O)Cn1nc(C)c2nn(-c3ccc(Cl)cc3)c(C)c2c1=O	-2%
CCOCCn1ccc2c(OCC(=O)Nc3ccc(C(N)=O)cc3)cccc2c1=O	2%
COc1ccc(NC(=O)c2cc(C3CC3)nc3c2c(C)nn3-c2ccccc2)c(OC)c1	2%
COc1cccc(NC(c2nnc(-c3ccccc3)o2)c2ccc(F)cc2Cl)c1 (centres undefined)	2%
Cc1csc2nc(-c3cccc(NC(=O)c4cccc(F)c4)c3)cn12	6%
COc1ccccc1CNC(=O)Cn1c(=O)oc2ccccc21	-13%

Some of the entries so far, in markdown:
| SMILES | miR-21 reporter |
| --- | --- |
| Cc1oc2ccc(O)c(CN3CCCCCC3)c2c1C(=O)Nc1cccc(C(F)(F)F)c1 | 28% |
| COc1ccc(NC(=O)C(Cc2ccccc2)NS(=O)(=O)c2ccc3c(c2)CCC(=O)N3)c(OC)c1 (centres undefined) | -3% |
| COc1ccc(NC(=O)CSc2nc(-c3ccco3)cc(C(F)(F)F)n2)cc1 | 12% |
| COCC(=O)Oc1c(Sc2ccc(C)cc2)c(C)nn1C(C)(C)C | 11% |
| CCOC(=O)c1cnc2c(ccc3ccccc32)c1Nc1ccccc1OCC | -8% |
| CCCNC(=O)c1ccc(-n2c(-c3ccccc3)cc3c2CCC(C)C3)cc1 (centres undefined) | ? |
| Cc1ccc(S(=O)(=O)c2nc(-c3cccs3)oc2SC(C)c2ccccc2)cc1 (centres undefined) | 1% |
| COc1ccccc1NC(=O)C1=C(C)Nc2ncnn2C1c1ccccc1C(=O)O (centres undefined) | -1% |
| Cc1ccc(-c2nc3sc(CCNC(=O)c4ccc(C)c(C)c4)c(C)n3n2)cc1 | -35% |
| Cc1ccc(-n2c(/C=C/c3c(C)n(C)c4ccccc34)nc3ccccc3c2=O)cc1 | 2% |
| COC(=O)c1ccccc1NC(=O)CSc1nc2sc3c(c2c(=O)[nH]1)CCCC3 | -2% |
| Cc1nnc(NCc2ccc(F)cc2)c2c1nnn2Cc1ccccc1Cl | 5% |
| Cc1ccc(S(=O)(=O)C(CNS(=O)(=O)c2cc(F)ccc2F)c2cccs2)cc1 (centres undefined) | 6% |
| CCc1nn(CC(=O)NC(C)c2ccccc2)c(=O)c2cc3sccc3n12 (centres undefined) | -3% |
| COc1ccc(S(=O)(=O)NCCc2csc3nc(-c4ccccc4)nn23)cc1OC | -1% |
| O=C(Cn1c(=O)n(CCc2ccccc2)c(=O)c2c3c(sc21)CCCC3)Nc1ccc(F)c(F)c1 | -1% |

Returning to the listing, repeating the two entries before the break.
SMILES	miR-21 reporter
Cc1csc2nc(-c3cccc(NC(=O)c4cccc(F)c4)c3)cn12	6%
COc1ccccc1CNC(=O)Cn1c(=O)oc2ccccc21	-13%
COc1ccccc1N1CCN(CC(O)COc2ccc(C)cc2C(C)(C)C)CC1 (centres undefined)	9%
CC(=O)c1ccc(NC(=O)CCc2c(C)nc3c(c(C)nn3-c3ccc(C)cc3)c2C)cc1	-44%
COCCCNC(=O)CCn1c(=O)c2ccccc2n(CC(=O)Nc2cc(Cl)ccc2OC)c1=O	-4%
COc1ccc(-n2nc3c(N4CCCC(C(=O)NCc5cccc(F)c5)C4)nnc(C)c3c2C)cc1 (centres undefined)	20%
COCCc1nn2c(=O)cc(COC(=O)COc3ccccc3C)nc2s1	-4%
CCOC(=O)c1cccc(NC(=O)N2Cc3ccccc3Oc3ncccc32)c1	-9%
Cc1ccccc1C(=O)Nc1nc2nc(C)c(C)c(=O)n2[nH]1	10%
CC1=C(c2ccc(Cl)cc2)S(=O)(=O)N=C1N1CCN(c2cccc(C)c2)C(C)C1 (centres undefined)	1%
COc1ccc(-c2nc3ccc(NS(=O)(=O)c4ccc(C)cc4)cc3o2)cc1	-16%
O=C(Nc1ccc(-c2nc3ccccc3o2)c(O)c1)c1ccccc1	-56%
Cc1ccc(CN(Cc2ccco2)C(=O)c2ccc(Cl)cc2)o1	21%
COc1ccccc1CNC(=O)CSC1=Nc2ccccc2N=C(c2ccc(F)cc2)C1	-3%
Cc1cc(C)c(NC(=O)C2CCN(C(=O)N3CC(C)Oc4ccc(Cl)cc43)CC2)c(C)c1 (centres undefined)	0%
COc1ccccc1N1CCN(c2c3c(nc4nncn24)CCC3)CC1	2%
O=C(CN1CCSc2ccccc21)N1CCCCC1	-1%
COc1cc(C(=O)N2CCC(c3ccncc3)CC2)cc(OC)c1OC	10%
CCC(=O)OCc1cc(=O)n2nc(C3CC3)sc2n1	-6%
O=C(CCSCCc1ccccn1)Nc1ccccc1C(F)(F)F	2%
O=C(NCCc1ccc(Cl)cc1)c1ccc2c(c1)N(Cc1ccccc1)CCS2	-18%
O=C(Nc1ccc2nc(SCC(=O)N3CCCC3)sc2c1)c1ccc(F)cc1	-19%
CCOc1cccc(NC(=O)c2ccc(F)c(S(=O)(=O)N(CC)c3cccc(C)c3)c2)c1	10%
CCc1ccc2ncc(S(=O)(=O)c3ccc(Cl)cc3)c(N3CCN(CC)CC3)c2c1	-10%
O=C(NCCc1ccc(Cl)cc1)c1ccc(CSCc2ccc(Cl)cc2)o1	9%
COc1ccc(NC(=O)C2=C(C)Nc3nc(SCc4ccc(Cl)cc4)nn3C2c2cccc(OC)c2OC)cc1 (centres undefined)	-9%
CCc1ccc(C2NC(=O)c3[nH]nc(-c4cccc(OC)c4)c32)cc1 (centres undefined)	-27%

Next part:
SMILES	miR-21 reporter
COc1ccc(Cl)cc1NC(=O)Cn1nc(C(F)(F)F)c2c1CCC2	-4%
CCCNc1c(NC(=O)c2ccc(OCCC)cc2)c(=O)oc2ccccc12	-4%
O=C(Cn1ccc2cc(S(=O)(=O)N3CCCC3)ccc21)NCc1ccc(Cl)cc1	-4%
CCn1c(CN2CCCCC2)nc2cc(NC(=O)COc3ccccc3C(C)(C)C)ccc21	0%
CCCCn1c(=O)c2oc3ccccc3c2n(Cc2cccc(F)c2)c1=O	-4%
COc1cccc(Cn2c(C)c(CNCc3ccccc3Cl)c(C(=O)O)c2C)c1	-10%
CCOc1ccccc1CNC(=O)CSc1n[nH]c(-c2ccccc2)n1	3%
COc1ccccc1NC(=O)Cn1c(=O)n(CC2CCC(C(=O)NCCc3ccccc3)CC2)c(=O)c2ccccc21 (centres undefined)	-7%
Cc1cc(C)c(NC(=O)CSc2nc(=O)n(Cc3ccncc3)c3c2CCC3)c(C)c1	0%
COc1ccc(CCNC(=O)c2ccc3c(c2)N(Cc2ccccc2F)C(=O)c2ccccc2S3(=O)=O)cc1OC	2%
CC(C)NS(=O)(=O)c1ccc(OCC(=O)N2CCN(c3ccccc3F)CC2)cc1	2%
C=C(C)Cn1c(SCC(=O)Nc2cccc(C)c2)nc2sc3c(c2c1=O)CCCC3	1%
CCCOc1ccccc1C(=O)N1CCCCC1CCN1CCOCC1 (centres undefined)	11%
